Mtb hypoxia inh = reduces hypoxia-regulated biosensor signal in M. tuberculosis; M. tuberculosis hypoxia-regulated fluorescent reporter, fluorescence; fluorescence inhibition, % (no concentration beside the values); 300,000 tested, 0.1% active; AID 1159583;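 active = 35 to 45% if threefold the growth effect, above 45% if 1.5-fold the growth effect; inactive = the rest, general growth blockers included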;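 note: wells of about 50 µL received 100 nL stock; 0% = vehicle wells and 100% = reference inhibitor wells; whole bacteria with a GFP reporter of the hypoxia response; strong numbers were not always called active; many hits fall short of the cut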
Autofluor counter = compound fluorescence in toxin protease inhibitor counterscreen | compound autofluorescence counterscreen, microsphere flow cytometry; hits give high values | fluorescence intensity (concentration not given with the values) | 360,000 tested, 3.1% active | AID 624483;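 active = at least 3 SD above the mean of all compounds, about 16000 in these data; inconclusive = too few beads counted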;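 note: 100 nL of 1 mM stock went into each well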
ugtP null kill = growth inhibition of S. aureus ugtP deletion strain. 330,000 tested, 0.54% active. growth inhibition, % (test concentration not listed). S. aureus RN4220 ugtP deletion, OD600 growth, 16 h; some inactives read as strong as hits;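 active = z-score under -3 and OD600 up to 0.15 on both plates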;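 note: plate controls were untreated wells for no effect and antibiotic for full effect; wells of about 80 µL received 100 nL stock; the first replicate is given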
PrP UTR inh = inhibition of PrP 5' UTR reporter expression | inhibition, % (no concentration beside the values) | 340,000 tested, 0.35% active | cell-based PrP 5' UTR mRNA reporter, plate reader | AID 488862;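 active = every replicate at 50% or more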;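 note: 0 = median of the neutral control wells; tested in H4 reporter cells; numbers are from one replicate; inactives centre near -14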
BJeLR viability = kills HRASV12-expressing BJeLR cells | BJeLR (HRASV12) viability, CellTiter-Glo ATP luminescence, 48 h; reference of the scale not given here | inhibition, % (test concentration not listed) | 300,000 tested, 0.17% active;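 active = replicate mean above 50%; inconclusive = above 50% but judged a plate artefact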;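 note: 50 nL library stock added to about 25 µL; numbers are from one replicate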
RN4220 kill = S. aureus RN4220 growth inhibition. OD600, 16 h. inhibition, % (concentration not given with the values). 330,000 tested, 0.33% active;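 active = z-score of -3 or lower and OD600 up to 0.18 on both plates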;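 note: plate controls were untreated cells for no effect and reference antibiotic for full effect; stock transfer was 100 nL into about 80 µL; one replicate is shown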
Mtb hypoxia inh growth = also measured in Mtb hypoxia inh; calls as there; growth inhibition, %; measured here: M. tuberculosis growth (absorbance);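 0% = vehicle and 100% = reference antibiotic; read after six days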
* hit, by the source's call; ? = inconclusive; . = not tested or not shown; & = joins results of further samples.

nr	structure	Mtb hypoxia inh	Mtb hypoxia inh growth	Autofluor counter	ugtP null kill
1	COc1ccc(-c2[nH]ncc2N=Nc2cc(C)cc(C)c2)cc1	12	2	4091	-25
2	Cc1nn(CC(=O)NCC(C)c2ccccc2)c(=O)c2cc(-c3ccccc3)nn12 (stereo not drawn)	4	-5	6810	5
3	COc1ccc(NC(=S)NC(=O)/C=C/c2cccs2)cc1	25	21	2536	84*
4	CCN1C(=O)C2C(c3ccc(-c4ccc(C(C)=O)cc4)cc3)N3CCCC[C@@]3(C(=O)OC)C2C1=O (stereo partly drawn)	-2&2	5&13	.	4&20
5	CC(NC(=O)/C(=C/c1ccc2c(c1)OCO2)NC(=O)c1cccc([N+](=O)[O-])c1)C(=O)O (stereo not drawn)	.	.	2064	.
6	O=C(NCc1ccccc1)c1c(Cl)nc(Cl)c(Cl)c1Cl	13	-7	3062	9
7	Oc1ccc(C=Nc2ccc(N3CCOCC3)cc2)c(O)c1	1	3	4790	3
8	CC1CCCC(NC(=O)COC(=O)c2cc3ccccc3oc2=O)C1C (stereo not drawn)	0	7	7919	4
9	Cn1c2c(c(=O)n(C)c1=O)C(c1ccc(C(F)(F)F)cc1)CC(=O)N2 (stereo not drawn)	9	13	3334	0
10	C=CCn1cc(C(=O)OC)c(=O)c2cc(S(=O)(=O)N3CCC(C)CC3)ccc21	4	-3	8113	7
11	CCOC(=O)Cn1nnnc1C(C(C)C)N(Cc1cc2c(C)cc(C)cc2[nH]c1=O)C1CCCC1 (stereo not drawn)	.	.	5965	-2
12	Cc1noc(C)c1CSCC(=O)OCC(=O)NC1CCCCC1	-1	3	9756	5

nr	PrP UTR inh	BJeLR viability	RN4220 kill
1	-46	-1	-11
2	-10	-1	6.0
3	-38	-8	0.7
4	.	.	2.2&7.8
5	-23	-4	.
6	-5	70*	14
7	-4	3	4.3
8	-48	.	2.5
9	-19	-8	1.9
10	-1	1	3.6
11	-13	-1	-1.1
12	-18	7	3.4

(listing goes on)
nr	structure	Mtb hypoxia inh	Mtb hypoxia inh growth	Autofluor counter	ugtP null kill
13	NC(=O)C1CCN(c2nc(-c3cccc(Cl)c3)cs2)CC1	7	16	3664	4
14	CCO[C@@H]1OC(C(=O)NCc2nc3ccccc3[nH]2)=C[C@H](C)[C@H]1CCCO	.	.	3466	.
15	CCn1c2ccccc2c2cc(NC(=O)c3cccc(OC)c3)ccc21	2	6	22832*	-38
16	CCn1cc(C=NNC(=O)COc2cccc3cccnc23)c2ccccc21	9	8	.	-7
17	COc1ccccc1-c1c(C)oc2cc(OCC(=O)OCc3ccccc3)ccc2c1=O	-8	-3	2139	2
18	CC(=O)N1N=C(c2cccs2)CC1c1cccc([N+](=O)[O-])c1 (stereo not drawn)	17	7	3336	2
19	C=CCN(c1ccccc1C(=O)O)S(=O)(=O)/C=C/c1ccccc1	11	2	4167	3
20	O=C(CSCc1c(Cl)cccc1Cl)N1CCOCC1	15	11	2181	0
21	CC(CC(=O)Nc1ccc(Cl)c(C(F)(F)F)c1)=NNC(=O)c1ccccc1O	-6	3	.	2
22	O=C(C(=O)N1CCOCC1)c1cn(CCOc2ccccc2)c2ccccc12	-12	-5	4307	10
23	CC(C)(C)C1CCc2c(sc3c2C(=O)NC(c2ccco2)N3)C1 (stereo not drawn)	0	-7	11044	-6
24	CC(Sc1ccccc1)C(=O)N1CCN(S(=O)(=O)c2cccc(Br)c2)CC1 (stereo not drawn)	-9	-8	6159	2

nr	PrP UTR inh	BJeLR viability	RN4220 kill
13	-15	.	-0.4
14	11	-1	.
15	-37	-4	3.8
16	.	.	-0.5
17	-6	-15	10
18	-11	-4	3.9
19	-33	-2	4.2
20	-11	-2	0.8
21	.	.	30
22	-20	.	17
23	-49	-4	-0.5
24	11	-3	10

Whole records, quoted from the list.
CCn1c2ccccc2c2cc(NC(=O)c3cccc(OC)c3)ccc21 is listed as Mtb hypoxia inh: 2; Mtb hypoxia inh growth: 6; Autofluor counter: 22832*; ugtP null kill: -38; PrP UTR inh: -37; BJeLR viability: -4; RN4220 kill: 3.8
CCn1cc(C=NNC(=O)COc2cccc3cccnc23)c2ccccc21 is listed as Mtb hypoxia inh: 9; Mtb hypoxia inh growth: 8; Autofluor counter: .; ugtP null kill: -7; PrP UTR inh: .; BJeLR viability: .; RN4220 kill: -0.5

(next part)
nr	structure	Mtb hypoxia inh	Mtb hypoxia inh growth	Autofluor counter	ugtP null kill
25	CC(=O)NCC(=O)N(C)C(C(=O)Nc1ccc2c(c1)OCCO2)c1ccc(C)cc1 (stereo not drawn)	-13	-2	4203	-5
26	COCCN1C(=O)C(=O)/C(=C(/O)c2ccc(S(=O)(=O)N3CCCCC3)cc2)C1c1ccc(O)c(OC)c1 (stereo not drawn)	-8	-7	4206	9
27	CCOC(=O)CSC1=C(C#N)C(c2sccc2C)C(C(C)=O)=C(C)N1 (stereo not drawn)	4	8	12455	5
28	Cc1ccccc1CN1CCN(c2ccc(Cl)cc2)CC1	6	5	2208	34
29	COc1ccc(C)cc1COC(=O)c1[nH]c(C)c(C(C)=O)c1C	7	13	6119	-3
30	O=C(O)c1ccccc1C(=O)Nc1ccc(Br)c2cccnc12	3	-2	4324	10
31	Cc1cnc(NC(=O)c2sc(Nc3ccccc3)nc2N)o1	1	-4	.	3
32	COc1ccc(S(=O)(=O)N2Cc3ccccc3CC2C(=O)O)cc1 (stereo not drawn)	16	7	?	3
33	COc1cccc(CN2CCN(Cc3cccc(F)c3)CC2)c1	-6	-8	3451	-1
34	COCc1cc(=O)[nH]c2cc(NC(=O)c3cccc(OC)c3)c(C)cc12	1	-7	4030	-1
35	CC(OC(=O)c1ccc(Cl)cc1)C(=O)NCc1ccc2c(c1)OCO2 (stereo not drawn)	6	10	8516	10
36	CN(CC(=O)NCc1ccc(F)cc1)CC(=O)Nc1ccc(Cl)c(C(F)(F)F)c1	-7	-6	4335	-25

nr	PrP UTR inh	BJeLR viability	RN4220 kill
25	-3	3	1.0
26	-13	3	3.6
27	-19	0	5.8
28	-13	-8	-2.4
29	-22	-9	2.2
30	-15	-7	4.8
31	-39	-3	5.1
32	-23	5	5.5
33	-14	-4	0.8
34	-24	-20	2.7
35	-25	.	5.8
36	1	0	-0.3

(list continues)
nr	structure	Mtb hypoxia inh	Mtb hypoxia inh growth	Autofluor counter	ugtP null kill
37	C/C(=N\NC(=O)C(O)c1ccccc1)c1ccc(C)s1 (stereo not drawn)	.	.	?	.
38	Cc1cccc(NC(=O)Nc2ccccc2)n1	2	12	3126	2
39	O=C(N/N=C/c1ccoc1)c1cc(Br)ccc1O	.	.	5309	.
40	CN(C)c1nc(N2CCOCC2)nc(N(c2ccccc2)c2ccccc2)n1	3	2	7960	2
41	CC(=O)Oc1ccc2c(=O)oc(-c3ccccc3)nc2c1	0	8	4204	7
42	COCCn1c(SCC(=O)NCc2ccco2)nc2cccnc21	.	.	3950	-1
43	COc1ccc(NC(=O)CSCC(=O)Nc2sccc2C#N)cc1	-6	4	4239	-3
44	Cc1ccccc1CN1CCNC(=O)C1CC(=O)NC1CCCCCCC1 (stereo not drawn)	-8	0	6646	-5
45	Cc1c(Cl)cccc1-n1c(SCC(=O)NCc2cccs2)nnc1-c1ccncc1	4	5	3370	5
46	Cc1oc(C(=O)O)cc1CSCc1cc(C(=O)O)c(C)o1	14	13	2634	0
47	Cc1c(-c2ccn[nH]2)cc(NC(=O)c2ccc(Cl)cc2)c(=O)n1N	3	5	3324	-2
48	CN1CCN(/N=C/c2ccc(-c3ccc([N+](=O)[O-])cc3Cl)o2)CC1	.	.	6979	.

nr	PrP UTR inh	BJeLR viability	RN4220 kill
37	-5	1	.
38	-32	-4	3.8
39	-21	-11	.
40	-10	6	2.3
41	-1	-6	4.8
42	0	4	0.7
43	-20	-2	0.1
44	6	-3	-2.1
45	-13	1	2.8
46	0	-1	2.7
47	-18	6	9.1
48	-24	3	.

Next compounds.
nr	structure	Mtb hypoxia inh	Mtb hypoxia inh growth	Autofluor counter	ugtP null kill
49	O=C(NCCOC(=O)c1ccc(C(=O)OCCNC(=O)c2cccnc2)s1)c1cccnc1	5	-3	12264	4
50	CCc1nnc(NC(=O)CSc2nnc(C)c(=O)n2N)s1	12	1	6724	11
51	Cc1ccnc(NS(=O)(=O)c2ccc(N3C(=O)Nc4ccccc4N3O)cc2)c1	18	0	3339	8
52	CCc1ccc(NC(=O)Cn2c3[n+](c4c(F)c(F)ccc42)CCCCC3)cc1	8	22	4622	-7
53	CC1CCCCC1NC(=S)NC(=O)c1sc2ccccc2c1Cl (stereo not drawn)	-2	2	3333	6
54	CCOC(=O)C1CCN(C(=O)c2cc(S(=O)(=O)N3CCc4ccccc43)ccc2OC)CC1	8	0	5771	9
55	Cn1[nH]c(CSc2ccc(Cl)cc2)cc1=O	10	-3	2397	-16
56	CC(C)(C)NS(=O)(=O)c1ccc(CCC(=O)O)cc1	4	9	11356	-4
57	CN(C)C(=O)c1cn(-c2ccccc2)nc1-c1cc2ccccc2oc1=O	4	3	4515	0
58	COc1ccc(NC(=O)CCCc2ccc(OC)c(C)c2)cc1	10	4	3485	3
59	O=C(CSc1ccccn1)Nc1ccc(Cl)cn1	11	-2	2311	4
60	CCc1ccc2[nH]c3nc(NN=Cc4cccc(O)c4)nnc3c2c1	14	4	.	0

nr	PrP UTR inh	BJeLR viability	RN4220 kill
49	.	-2	0.5
50	-25	-1	-1.8
51	-18	2	6.8
52	-8	7	-4.2
53	-25	-1	0.1
54	-8	5	3.7
55	-92	-18	7.8
56	-12	2	1.3
57	-27	5	5.2
58	-43	-5	5.4
59	-20	0	7.1
60	.	.	-0.8

New compounds follow:
nr	structure	Mtb hypoxia inh	Mtb hypoxia inh growth	Autofluor counter	ugtP null kill
61	CCN(CC(=O)Nc1ccc2c(c1)OCCO2)C(=O)/C=C/c1ccc(OC)c(OC)c1	7	5	6197	4
62	O=C(NC1CCN(Cc2ccccc2)CC1)c1ccc2c(c1)OCCCO2	3	11	3757	5
63	O=C(CSc1ncnc2ccccc12)Nc1ccc2c(c1)OCCO2	7	-3	4373	20
64	Nc1ccccc1C(=O)NC12CC3CC(CC(C3)C1)C2	4	0	3191	1
65	O=C(NC1CC(=O)N(c2cccc(F)c2)C1)C(=O)c1c[nH]c2ccccc12 (stereo not drawn)	1	-4	.	-4
66	CCn1c(COc2ccc(Cl)cc2)nnc1SC1CCc2ccccc2C1=O (stereo not drawn)	-2	-1	2154	-13
67	CC(C)CCn1c(CN2CC(C)OC(C)C2)nc2c1c(=O)n(C)c(=O)n2C (stereo not drawn)	9	7	5285	-6
68	O=C(NNC(=O)C1CCN(S(=O)(=O)c2ccc(Cl)cc2)CC1)c1ccncc1	11	-3	3108	8
69	CCC(=NNc1ccccc1[N+](=O)[O-])c1ccc(O)cc1	10	-2	.	0
70	O=c1c2ccccc2nc(-c2ccco2)n1/N=C/c1ccccc1O	.	.	3869	.
71	O=C1CCCc2[nH]c(-c3ccccc3)nc21	-6	-2	2581	-3
72	Cc1ccc(OCC(=O)Nc2cc(S(=O)(=O)N3CCOCC3)ccc2Cl)c([N+](=O)[O-])n1	14	6	5248	-2
73	COc1cc(OC)c(S(=O)(=O)NC(C)C)cc1S(=O)(=O)NC(C)C	9	2	3333	-11

nr	PrP UTR inh	BJeLR viability	RN4220 kill
61	-17	-2	5.0
62	2	-8	2.3
63	-51	-7	-2.0
64	-15	-4	4.0
65	-10	-2	1.4
66	-29	0	-1.3
67	-10	6	-6.2
68	-3	-7	4.2
69	.	.	-11
70	-25	1	.
71	-9	4	-1.3
72	-9	8	-1.1
73	-27	-7	-0.7

Some of these compounds in order of number of heavy atoms, falling.
nr	structure	Mtb hypoxia inh	Mtb hypoxia inh growth	Autofluor counter	ugtP null kill
72	Cc1ccc(OCC(=O)Nc2cc(S(=O)(=O)N3CCOCC3)ccc2Cl)c([N+](=O)[O-])n1	14	6	5248	-2
62	O=C(NC1CCN(Cc2ccccc2)CC1)c1ccc2c(c1)OCCCO2	3	11	3757	5
64	Nc1ccccc1C(=O)NC12CC3CC(CC(C3)C1)C2	4	0	3191	1

nr	PrP UTR inh	BJeLR viability	RN4220 kill
72	-9	8	-1.1
62	2	-8	2.3
64	-15	-4	4.0

From PubChem
